Ab BasE inh – BasE siderophore enzyme inhibitors, primary screen, biochemical, Acinetobacter baumannii ATCC 17978, fluorescence polarization; inhibition, % (test concentration not listed); purified BasE, fluorescence polarization binding displacement; 84,000 compounds, 0.1% hits;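 active means both replicates above 25% with normal brightness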;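 further: 0% = negative plate control signal and 100% = positive plate control signal; stock transfer was 100 nL into about 30 µL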
LANA-nucl inh – inhibitors of KSHV LANA-nucleosome binding, primary screen, biochemical, fluorescence polarization, FITC-LANA1-23, chicken nucleosomes | AID 720717, 2013 | FITC-LANA1-23 / chicken nucleosome fluorescence polarization; hits give low values | 51,000 compounds, 0.3% hits | z-score (no concentration beside the values);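 active means both repeat wells score below -2 in polarization z-score versus plate sample wells, excluding overly bright wells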;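 further: 100 nL library stock added to about 30 µL; numbers are from one replicate; some results filed as inactive read as strong as hits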
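test system = FITC-LANA peptide and chicken nucleosomes | amount = 240 nM purified chicken nucleosomes (480 nM peptide binding sites), final | reagent = 50 nM FITC-LANA1-23 probe | medium = TEN-BT buffer, pH 7.5 | doses = single compound addition by pin transfer, 100 nL per well | timing = 10–45 min, room temperature | detection = fluorescence polarization | repeats = duplicate plates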
* = called active by the depositor; / = no result given; & = joins results of further samples.

The line under a structure holds: Ab BasE inh | LANA-nucl inh
1. O=S(=O)(c1ccc(-n2cccn2)cc1)N(Cc1ccccn1)Cc1ccccn1
→ -0.7 | -0.21
2. COCCNC(=S)N1CCN(S(C)(=O)=O)CC1
→ 4.4 | -0.41
3. COC(=O)CSc1nnc2sc3ccccc3n12
→ 0.5 | /
4. CCC1CCc2nc3sc(C(=O)NC(C)c4ccccc4)c(N)c3cc2C1 (stereo not given)
→ 0.6 | /
5. CN1C(C(=O)NC(C)(C)C)=CC(c2cccs2)=NS1(=O)=O
→ -0.6 | -0.65
6. O=C(CCCOc1ccccc1)Nn1cnnc1
→ 1.8 | 0.21
7. CN(C)C(=O)COC(=O)c1cncc(Br)c1
→ 1.0 | /
8. CCN1CCN(C(=O)CN(c2cccc(C(F)(F)F)c2)S(=O)(=O)c2ccc(C)cc2)CC1
→ 0.9 | -0.72
9. CC(C)Nc1nc(NC(C)C)nc(N(C)C)n1
→ 0.5 | -0.16
10. O=C(c1ccc2nc(N3C(=O)c4ccccc4C3=O)sc2c1)N1CCOCC1
→ 1.9 | 0.26
11. Cc1ccc(C(=O)Sc2nnc3sc4ccccc4n23)cc1
→ 0.6 | /
12. CCOc1ccc(NC(=O)C2CCN(C(C)=O)CC2)cc1
→ / | -0.75
13. CCS(=O)(=O)Nc1ccc(C2=NN(C(=S)Nc3ccccc3)C(c3ccco3)C2)cc1 (stereo not given)
→ -0.8 | /
14. Cc1oc2cc(OC(C)C)ccc2c(=O)c1-c1ccc2c(c1)OCCO2
→ -1.0 | /
15. Nc1cc2c(cc1Cl)OCCCO2
→ -0.7 | /

An excerpt of these results, in transposed form.
#6 O=C(CCCOc1ccccc1)Nn1cnnc1
#7 CN(C)C(=O)COC(=O)c1cncc(Br)c1
Compound	6	7
Ab BasE inh	1.8	1.0
LANA-nucl inh	0.21	/

(continued)
The line under a structure holds: Ab BasE inh | LANA-nucl inh
16. O=S(=O)(Nc1ccncc1)c1ccccc1
→ -1.8 | 1.3
17. CSc1ncc(C(=O)NC(C)c2ccccn2)n1-c1ccc(F)cc1 (stereo not given)
→ 1.2 | /
18. O=C(NC1CCCC1)C1CCC(CNS(=O)(=O)c2ccccc2)CC1 (stereo not given)
→ -1.8 | 1.9
19. COc1ccc(CCN(Cc2cc3cc4c(cc3[nH]c2=O)OCO4)C(=O)c2ccncc2)cc1OC
→ -0.9 | -1.4
20. Cc1ccc(Sc2ncccc2C(=O)Nc2ccnn2C2CCN(C)CC2)cc1
→ -3.0 | /
21. COc1ccc2nc(C)c(C(=O)O)cc2c1
→ 1.6 | 0.69
22. Cc1nc(-c2cc(C#N)c(SCCNS(=O)(=O)c3ccc(C(C)(C)C)cc3)nc2C)cs1
→ -0.6 | /
23. COC(=O)c1cc(CSc2nnc(NC3CCCCC3)s2)oc1C
→ 0.4 | /
24. Cn1cccc1Cc1nnc(SCC(=O)NO)n1-c1ccc(OC(F)(F)F)cc1
→ -0.8 | 0.038
25. Nc1ccccc1C(=O)N1CCCCCC1
→ 1.6 | /
26. C=CCNc1nc(C(=O)OCC(=O)Nc2scc(-c3cccs3)c2C(=O)OCC)cs1
→ -0.5 | /
27. CNC(=O)c1cc(Br)cc(S(=O)(=O)N2CCC(C)CC2)c1
→ 2.0 | /
28. O=C(NC1(C(F)(F)F)Oc2ccccc2O1)N1CCCC1
→ 1.8 | /
29. CCCC(=O)C1CCOC(C)(CC)C1 (stereo not given)
→ 4.8 | 0.89
30. Cc1ccc(CN2C(=O)C(C)(C)Oc3ccc(C(=O)NC4CC4)cc32)cc1
→ -2.6 | 0.58
31. Cc1cc(NC(=O)c2ccc(S(=O)(=O)N3CCc4ccccc43)cc2)no1
→ 0.2 | 0.32
32. COc1ccc(C2CC(c3ccccc3)=NN2C(=O)Cn2nnc3ccccc32)cc1 (stereo not given)
→ 3.9 | /
33. CC(C)COc1ccc(C(=O)N(C)Cc2ccccc2)cc1
→ 0.9 | -1.1
34. S=c1[nH]nc(-c2c(-c3ccccc3)c(-c3ccccc3)nn3nnnc23)o1
→ 2.2 | -0.23
35. COc1cc(CN2CCN(C(=O)c3cccc4ccccc34)CC2)cc(OC)c1OC
→ -0.5 | -0.14
36. N#CC(C#N)=CNCC(c1ccc(F)cc1)N1CCOCC1 (stereo not given)
→ 0.7 | /
37. Cn1c(SCC(=O)N2CCc3ccccc32)nc2c(c1=O)SCC2
→ 2.3 | -0.25
38. Cc1noc(C)c1-n1sc(=O)n(CC2CC2)c1=O
→ 2.0 | /
39. CCCNC(=O)c1cccc(C)c1
→ 0.2 | -0.043
40. O=C(Oc1c(Cl)cc(Cl)c2cccnc12)N1CCCCCC1
→ 1.1 | -1.1
41. Cc1cc(/C=C(\C#N)C(=O)O)c(C)n1CC1CCCO1 (stereo not given)
→ 0.7 | /
42. COc1ccc(-c2c(-c3ccc(OC)cc3)n(Cc3ccc(F)cc3)c3nc[nH]c(=O)c23)cc1
→ 0.0 | /
43. O=C(CCSc1nnnn1-c1ccccc1)c1ccc(F)cc1
→ -1.0 | /
44. O=C(O)CCC(=O)N1CCN(C(c2ccccc2)c2ccccc2)CC1
→ 2.4 | /
45. Cc1ccc(-c2c(C#N)c(SCC(=O)c3ccc(F)cc3)nc3c2CCCC3)o1
→ -0.8 | 1

Looked up above.
cpd 32 in Ab BasE inh has 3.9
cpd 5 in LANA-nucl inh has -0.65

More structures:
The line under a structure holds: Ab BasE inh | LANA-nucl inh
46. CCCCN(CC)c1nc(C(=O)OCC)nc2ccccc12
→ -0.9 | 0.2
47. Cn1ncc2c(NNC(=O)C3CCCCC3)ncnc21
→ 1.9 | -1
48. Cc1c(C)c(C)c(CSC2CC(=O)N(c3ccccc3)C2=O)c(C)c1C (stereo not given)
→ 3.5 | /
49. CCOc1ccc(C=Nc2ccc3c(c2)ncn3C)cc1
→ 0.0 | 1.1
50. O=C1Cn2c(nc3ccccc3c2=O)CN1Cc1ccc(Cl)cc1Cl
→ -2.2 | /
51. Cc1cc(C)c2c(CC(=O)N3CCCC3)coc2c1
→ 2.7 | 0.71
52. Cc1cccc(NS(=O)(=O)c2ccccc2)n1
→ 1.2 | -0.39
53. CCSc1nc2c(c(=O)[nH]c(=O)n2C)n1CC
→ 2.6 | 0.37
54. COc1ccc(O)c(/C=N/N=C/c2cc(OC)ccc2O)c1
→ 1.8 | /
55. CCCc1nc(SCC(=O)c2ccc(Cl)cc2)nc(OC(=O)N(CC)CC)c1C
→ -0.7 | /
56. CCN(C(=O)Cc1noc2ccccc12)c1ccccc1
→ 1.0 | 0.03
57. COC(=O)c1ccc(CSc2nc3scc(-c4cccs4)c3c(=O)[nH]2)o1
→ 1.8 | /
58. O=c1[nH]c(-c2ccccc2)cs1
→ 0.5 | 0.054
59. S=c1[nH]cc2ccccn12
→ -1.1 | /
60. O=C1CC(c2ccccc2)CC(O)=C1C=NCc1ccncc1 (stereo not given)
→ 0.8 | /
61. CC1CN(C(=O)COC(=O)c2c(F)cccc2F)CC(C)O1 (stereo not given)
→ 0.1 | /
62. Nc1ccc(C(=O)O)cc1
→ 2.6 | 0.023&0.059
63. CCCN1C(=O)c2ccccc2NC1c1ccc(OC)c(OC)c1 (stereo not given)
→ -0.3 | /
64. Nc1cc(=O)nc(SCCC(=O)O)n1-c1ccccc1
→ -1.3 | 0.0075
65. Cc1nnc2ccc(-c3ccc(NC(=O)c4ccc5c(c4)OCO5)cc3)nn12
→ 0.2 | 0.73
66. COc1ccccc1N1CCN(S(=O)(=O)c2cccc3nsnc23)CC1
→ -1.0 | -1
67. O=S(=O)(NCCCCN1CCN(c2ncccc2C(F)(F)F)CC1)c1ccc(Cl)cc1
→ 0.9 | -0.014
68. NC(N)=NN=C1CCC(c2ccccc2)CC1 (stereo not given)
→ -0.9 | /
69. Cc1cc(-c2nnc(-c3ccc(C(F)(F)F)cn3)o2)no1
→ 1.8 | 0.29
70. Cc1c(F)cccc1NC(=O)CCCCCC1NC(=O)NC1C (stereo not given)
→ -1.1 | 0.97
71. CCC(C(=O)NC1CCCC1)N(C(=O)Cn1nnc(-c2ccc(C)cc2)n1)c1ccc2c(c1)OCCO2 (stereo not given)
→ -0.5 | 2.8
72. COc1ccc2[nH]c(C(=O)N(C)C3CCN(C)CC3)cc2c1
→ / | -0.6
73. COCc1nnc(NC(C)=O)s1
→ 0.9 | -1.5
74. CC(C)C1=NN2C(=N)CC(=O)N=C2S1
→ 0.4 | 0.23
75. Cc1ccc(NC(=O)c2ccccc2S(C)(=O)=O)cc1
→ 2.6 | /
76. CC(=O)NCc1ccc(C(=O)CSc2nnc(-c3cccc(F)c3)n2N)o1
→ 2.6 | /
77. CCOC(=O)c1cnc2c(C(F)(F)F)cccc2c1N1CCOCC1
→ -0.8 | 1.1
78. Cc1ccsc1C(=O)OCC(=O)c1ccc2c(c1)OCCO2
→ -2.5 | /
79. Cc1ccc(C)n1-c1ncn[nH]1
→ 0.7 | /
80. Cc1cc(C)n(CC(=O)NCc2ccccc2)c(=O)c1C#N
→ -1.9 | -0.7
81. CCn1nnnc1SCC(N)=O
→ -0.6 | -0.3
82. CCOC(=O)c1c(C)[nH]c(C)c1C(=O)CSc1nnc(C(F)(F)F)n1N
→ 0.8 | /
83. COc1ccccc1NC(=S)N1CCN(C2CCCCC2)CC1
→ 0.4 | -0.36
84. Cn1cccc1/C=C1\CS/C(=C\c2cccn2C)C1=O
→ -8.6 | 1.6
85. C(=N\n1c(-c2ccco2)csc1=NC1CCCCC1)/c1ccccn1
→ 3.2 | /
86. CCOC(=O)c1c(-c2ccccc2)oc2ccc(O)c(CSCC(=O)Nc3ccccc3)c12
→ 1.3 | /
87. COc1ccccc1CC(=O)Nc1cccc(C)n1
→ -3.4 | 2.8
88. O=C1NCCCN1Cc1ccc(Cl)cc1
→ -0.8 | -0.89
89. Cc1ccc2c(c1)c1c3c(nccn32)CCC1
→ 10 | -3.2*
90. CCCCOc1ccc(S(N)(=O)=O)cc1
→ -2.9 | /
91. COc1ccc(NC(=O)c2cnc(SCC(=O)Nc3cc(C)on3)n(C)c2=O)cc1
→ -1.9 | 2
92. CC1(C)Cc2cccc(C(=O)NC3CCN(Cc4ccccc4)CC3)c2O1
→ / | -0.9
93. Cn1c(SCc2nc3ccccc3o2)nnc1C(F)(F)F
→ -0.9 | /
94. CCCCCn1c(SCC(=O)N2CCC(C(F)(F)F)CC2)n[nH]c1=O
→ -0.1 | -0.47
95. Nc1ccc(OCc2ccccc2Cl)cc1
→ 1.8 | -0.19
96. Cc1ccc(OC(=O)c2ccccc2)c(-n2nc3ccccc3n2)c1
→ 0.9 | /
97. COc1ccccc1-n1c(SCc2csc(NC(C)=O)n2)nnc1-c1cccs1
→ -8.5 | /
98. O=C(CN(Cc1ccco1)C(=O)Cn1nnc(-c2cccs2)n1)NCc1ccccc1
→ 0.0 | -0.49
99. O=C(CCN1C(=O)/C(=C\c2ccco2)SC1=S)NC1CCCC1
→ -1.6 | 0.65
100. COc1ccc(-c2nnc(NC(=O)Cc3ccccc3)o2)cc1
→ 0.8 | 0
101. O=C(NCCc1cn2c(n1)SCC2)NC1CCCCC1
→ 1.9 | -1.2
102. Cc1onc(-c2c(Cl)cccc2Cl)c1C(=O)NC1CSC(C)SC1 (stereo not given)
→ -0.2 | /
103. NNC(=O)c1cc(-c2ccccc2)n[nH]1
→ 0.1&2.1 | -0.57
104. NNC(=O)C1C(C(=O)NN)C1c1ccccc1 (stereo not given)
→ 0.2 | /
105. CC1(NC(=O)c2ccc(C#N)cc2)CCS(=O)(=O)C1 (stereo not given)
→ -2.1 | /

Full records, quoted from the list:
Entry for O=C(CCN1C(=O)/C(=C\c2ccco2)SC1=S)NC1CCCC1 : Ab BasE inh = -1.6; LANA-nucl inh = 0.65
Entry for NNC(=O)c1cc(-c2ccccc2)n[nH]1 : Ab BasE inh = 0.1&2.1; LANA-nucl inh = -0.57
Entry for NNC(=O)C1C(C(=O)NN)C1c1ccccc1 (stereo not given) : Ab BasE inh = 0.2; LANA-nucl inh = /

Next compounds.
The line under a structure holds: Ab BasE inh | LANA-nucl inh
106. O=C(Cc1ccccc1)N/N=C/c1ccco1
→ 0.6 | 0.7
107. O=C(CN1CCN(C(=O)c2ccco2)CC1)Nc1ccccc1C(F)(F)F
→ 2.1 | 0.19
108. CC(=O)Nc1cc(C)ccc1C
→ 3.4 | 0.36
109. O=C(CCc1nc2ccccc2c(=O)[nH]1)Nc1cccc(N2CCCC2=O)c1
→ 11 | /
110. CCCCNC(=O)c1ccc(S(=O)(=O)N(C)C)cc1
→ -1.6 | /
111. CN(CCOC(=O)c1ccccc1)c1cc(C(F)(F)F)nc2ccccc12
→ -1.7 | /
112. CCC(=O)O[C@H]1CCC2C3CCc4cc(O)ccc4C3CC[C@@]21C (stereo not given in full)
→ -0.2 | -0.49&-0.26
113. O=C(O)CCC12CC3CC(CC(O)(C3)C1)C2
→ 0.2 | /
114. CC(C)(C)c1nnc2sc(-c3cccs3)nn12
→ -5.3 | 2.6
115. CCCCN1CCC(N)=NC1=O
→ -0.4 | /
116. O=C(O)c1cnc(-c2ccc(Cl)cc2)nc1
→ 0.0 | 0.042
117. CC(C)n1nc(C(=O)OCc2nc(N)nc(Nc3ccccc3)n2)c2ccccc2c1=O
→ -0.5 | /
118. Cc1nc(-c2ccc(-c3cccs3)s2)sc1-c1ccnn1C(=O)c1cccs1
→ 3.2 | -0.075
119. CCCCN1C[C@H](O)[C@@H](O)[C@H](O)[C@H]1CO
→ / | -1.1
120. O=C(O)c1ccc(N/C=C/C(=O)c2ccccc2)cc1
→ 8.5 | -2.1
121. CN(CC1COc2ccccc2O1)c1nc(CN2CCOCC2)nc2sc3c(c12)CCCC3 (stereo not given)
→ 0.0 | /
122. CC(C)CCNC(=O)C1=CC=CN2CCS(=O)(=O)N=C12
→ -0.1 | /

Bioassay records (PubChem)

Only part of the results is shown; rates above refer to the full screens.
